# S aureus helic: S. aureus DNA helicase inhibition; AID 485395; inhibition, %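 (tested at about 80 µM)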; purified S. aureus helicase, fluorescence unwinding assay; about half of the hits fall short of the stated cut; 120,000 tested, 0.05% active;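 active means both duplicates at 50% or more, or one of them with a favoured structure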;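 further: 0% = mean of negative control wells and 100% = mean of positive control wells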
# MgrA-DNA mod: alters Staphylococcus aureus MgrA binding to DNA. AID 602314. inhibition, %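 (about 10 µg/mL by stock and volumes)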. 84,000 tested, 0.13% active. fluorescence polarization;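 active means above 50% in either of two replicates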;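 further: 0% = protein plus DNA without compound and 100% = DNA alone without protein; higher means less MgrA bound to DNA so lower polarization; one replicate is shown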
# Numbers without * were called inactive; . = not tested or not shown. An excerpt, so the mix of outcomes need not match the whole.
compound | S aureus helic | MgrA-DNA mod
O=C(CCSCc1cnn(-c2ccccc2)c1-n1cccc1)NCc1ccc(F)cc1 | 2 | 1.5
CC(Sc1nnc(-c2ccncc2)n1C)c1ccccc1Cl (stereo not given) | -6 | .
Cc1ccccc1C(=O)c1cccn1CC(=O)NC1CCCCCC1 | -7 | .
CC(C)CN(CC(C)C)S(=O)(=O)N1CCC(C(=O)NCc2cccnc2)CC1 | 8 | .
Cc1ccc(Cc2ccc(=O)[nH]n2)cc1 | . | 1.6
CN(C)c1nnnn1-c1ccccc1 | . | -1.1
Cc1cc(Br)ccc1SCC(=O)OCC(=O)Nc1cc(F)ccc1F | -10 | -0.9
O=c1/c(=C/c2cc(-c3ccccc3)n(-c3ccc([N+](=O)[O-])cc3)c2-c2ccccc2)sc2nc3ccccc3n12 | . | -1.9
Cc1cnc(C(=O)Nc2cccc3ncccc23)cn1 | 6 | -2.4
N#Cc1ccc(NC(=O)c2ccco2)cc1 | . | -0.2
CCOC(=O)c1ccc(NC(=O)c2sc(NC(=O)c3ccc(OC)cc3)c(C(=O)OCC)c2C)cc1 | . | 0.1
CCOc1cccc(/C=N/NC(=O)c2cc(-c3cccn3C)n[nH]2)c1O | 16 | .
CC1CCCCC1NC(=O)c1cc2c(s1)CSC2 (stereo not given) | 9 | 4.5
O=C(COc1ccc2cc(Br)ccc2c1)NC(=O)NCc1ccco1 | -13 | .
Cc1ccccc1NC(=O)Nc1ccc(OCc2ccccc2)cc1 | -2 | -0.4
CN1CCc2c(n(CC(O)CNC3CCCC3)c3ccccc23)C1=O (stereo not given) | 8 | .
O=C(NC(O)C(=O)c1ccccc1)c1ccco1 (stereo not given) | 13 | .
NC(=O)/C=C/C(=O)Nc1ccc(N2CCOCC2)cc1 | 5 | .
O=C1c2ccccc2NC(c2ccc3c(c2)OCCO3)N1CCc1ccccc1 (stereo not given) | 13 | .
O=C(O)c1cnn(-c2ccc(Cl)cc2)c1C(F)(F)F | . | -2.5
O=S(=O)(Cc1nn[nH]n1)c1ccccc1 | 4 | 0.0
CCC(CC)=NNC(=O)c1cc(-c2ccccc2)n[nH]1 | 6 | .
CC(C)(C)C(=O)/C=C(/N)c1ccncc1 | 1 | 0.8
CN(N)C(=S)NC(C)(C)C | . | 1.9
CCC(C)(C(=O)NC1CCCC1)N(C(=O)Cc1cccs1)c1c(C)n(C)n(-c2ccccc2)c1=O (stereo not given) | 19 | .
Cc1ccc(C2(C#N)C(=O)Nc3ccccc32)c(C)c1 (stereo not given) | 20 | 2.0
Cc1nc(C(F)(F)F)ccc1C(=O)Nc1ccccc1-c1ccccc1 | . | -1.3
CC(C)NC(=O)c1ccc2c(c1)nnn2C | 4 | -0.6
CCOc1ccc(C2CCCN2Cc2nc(N)nc(Nc3ccccc3)n2)cc1 (stereo not given) | -1 | .
FC(F)(F)c1ccccc1-n1nnnc1-c1ccc(Cl)cc1Cl | . | 0.2

# Structures above with a furan ring, fused or not, in the order listed:
compound | S aureus helic | MgrA-DNA mod
N#Cc1ccc(NC(=O)c2ccco2)cc1 | . | -0.2
O=C(COc1ccc2cc(Br)ccc2c1)NC(=O)NCc1ccco1 | -13 | .
O=C(NC(O)C(=O)c1ccccc1)c1ccco1 (stereo not given) | 13 | .

# Next part
compound | S aureus helic | MgrA-DNA mod
O=C(Oc1ccc([N+](=O)[O-])cc1)OC12CC3CC(CC(C3)C1)C2 | . | -0.7
Cc1cccc(Cc2c(C)c3c(C)[nH]nc3oc2=O)c1 | 0 | 0.8
CC1(C)Cc2c(C#N)c(NC3CCCCC3)nc(-c3ccco3)c2CO1 | -13 | 2.0
CC(C)CCNC1=NCCCCC1 | -5 | .
Cn1c(/N=C/c2c(O)ccc3ccccc23)nc2ccc(Br)cc21 | . | 35
C/C(=N\NC(=O)Cc1c(C)[nH]c(=O)[nH]c1=O)c1ccc(Br)cc1 | 0 | -0.9
CN(C)c1ccc(/C=C2/C(=O)c3ccc(C(=O)O)cc3C2=O)cc1 | -90 | .
CCSc1nnc2c(n1)OC(C(=O)c1ccccc1)Nc1ccccc1-2 (stereo not given) | 2 | 0.2
COc1ccc(Cc2nc(-c3ccc(Cl)cc3)cs2)cc1 | . | -1.7
CCOc1cc(C2Nc3ccccc3-c3nnc(SCC)nc3O2)ccc1O (stereo not given) | . | -0.1
NC(=O)COC(=O)c1oc2ccccc2c1COc1ccccc1 | 3 | .
COc1ccc(-c2c(C#N)c(SCC(N)=O)nc(C)c2C(=O)Nc2ccccc2)cc1 | . | 0.6
CCOC(=O)C1CCCN(C(=O)Nc2ccccc2)C1 (stereo not given) | 11 | 0.4
COCCn1c(SC)nnc1-c1ccccc1 | 0 | -2.8
CCOc1ccccc1NCC(=O)Nc1cc(C)ccc1Cl | -7 | -1.4
COC(=O)CSc1ccc2nnc(-c3cccnc3)n2n1 | 7 | .
Cc1ccc(-n2ncc3c(=O)[nH]c(SCc4ccccc4F)nc32)cc1C | -22 | .
O=C(O)CCc1nc2ccc(C(=O)O)cc2[nH]1 | -10 | 0.5
COC(=O)CSc1nc2ccc(C(C)C)cc2cc1C#N | -3 | 0.9
COc1cc(CNC2C3CC4CC(C3)CC2C4)ccc1OCc1cccs1 (stereo not given) | -11 | 0.0
O=C1c2ccccc2S(=O)(=O)NN1CN1C(=O)c2ccccc2C1=O | 10 | .
CCN(CC)C(=O)CSc1ncnc2c1nnn2Cc1ccc(F)cc1 | -17 | -0.3
O=S(=O)(Nc1ccc(-c2cnco2)cc1)c1ccccc1 | . | 2.7
Cc1ccc(S(=O)(=O)N2C(=O)CCC2c2nc(-c3cccnc3)no2)cc1 (stereo not given) | 20 | -1.1
CC(CC(=O)OCc1ccccc1)n1ccnc1 (stereo not given) | 5 | .
CCc1ccc(NC(=O)Cn2cc3c(n2)CCCC3)cc1 | 9 | -0.6
CNC(=O)NC(=O)CSc1nnc(SCC(=O)NC(=O)NC)s1 | 5 | .
CSc1cccc(NC(=O)COCc2cc(-c3ccc4c(c3)OCO4)on2)c1 | 9 | .
CCOC(=O)C(CC)Sc1ccc2nnc(CCNC(=O)c3ccc(F)cc3)n2n1 (stereo not given) | 3 | .
CCn1c(CS(=O)(=O)c2cc(C)ccc2C)nc2cc(C(=O)O)ccc21 | -13 | .
CCN=C1S/C(=C/c2ccc(-c3ccc(F)cc3)o2)C(=O)N1CC | 3 | 3.1
CN1c2ccccc2Sc2cc(N)ccc21 | 12 | .
O=C(O)c1cc([N+](=O)[O-])ccc1NCCCc1ccccc1 | . | 0.2
CC/C(Cc1ccccc1)=N\NC(=O)c1cc(C)oc1C | -16 | .
O=C(CN1C(=O)CC2(CCCC2)C1=O)NC1CCS(=O)(=O)C1 (stereo not given) | -6 | .
COc1ccc(NC(=O)NC(C)C2CC3CCC2C3)cc1 (stereo not given) | 17 | -0.4
Ic1cccc(-c2nc(-c3ccccc3)no2)c1 | -1 | 1.0
CC(C)(C)c1ccc(S(=O)c2sc3nc4c(cc3c2N)CCCC4)cc1 (stereo not given) | 1 | 2.0
c1csc(CNc2ncnc3sccc23)c1 | -12 | .
CCn1c2ccccc2c2nnc(SCC(=O)NC3CCCC3)nc21 | 0 | .
CCN(CC)S(=O)(=O)c1ccc2nc(CSc3nnnn3-c3ccc(O)cc3)[nH]c2c1 | -13 | .
COc1cc(-c2nc3ccccc3c(=O)n2NC(=O)c2ccc([N+](=O)[O-])c(C)c2)cc(OC)c1OC | . | -2.2
O=C(O)CNC(=O)c1cc(=O)[nH]c(=O)[nH]1 | 2 | -1.9
COc1ccc(NC(=O)CCn2c(=O)c3cccn3c3ccccc32)cc1 | 19 | .
Cc1ccc(S(=O)(=O)CCN2C=CC(C(F)(F)F)=NCC2)cc1 | -14 | .
O=C(Nc1nccs1)C1CC1(c1ccccc1)c1ccccc1 (stereo not given) | 5 | .
CC(C)CC(=O)Nc1cc2nn(-c3ccccc3)nc2cc1Cl | -6 | 0.9
O=C1CSC(=O)N1C/C=C/CN1C(=O)CSC1=O | -2 | .
Nc1nc(OCC(F)(F)F)cc(-c2ccccc2)n1 | 1 | -3.9
COC(=O)c1cc2ccc3c(c2oc1=O)CN(Cc1ccco1)CO3 | 34 | .

# Sorted by count of non-hydrogen atoms (smallest number first): part of the list above
compound | S aureus helic | MgrA-DNA mod
O=C1CSC(=O)N1C/C=C/CN1C(=O)CSC1=O | -2 | .
Nc1nc(OCC(F)(F)F)cc(-c2ccccc2)n1 | 1 | -3.9
CCN(CC)S(=O)(=O)c1ccc2nc(CSc3nnnn3-c3ccc(O)cc3)[nH]c2c1 | -13 | .

# Next records.
compound | S aureus helic | MgrA-DNA mod
N#C/C(=C\Nc1ccccn1)S(=O)(=O)Cc1ccco1 | . | -1.7
N#CC(C#N)=NNc1ccc(F)cc1F | . | -1.2
O=c1[nH]nc(-c2cccs2)o1 | 17 | .
O=S(=O)(c1cccc(CSc2nc3ccccc3s2)c1)N1CCOCC1 | 35 | .
Cc1nc2ccccc2n1CC(O)c1ccccc1 (stereo not given) | 13 | .
O=C(NCc1cc(F)cc2c1OCOC2)c1ccc(-c2ccccn2)s1 | . | -1.4
O=C(Oc1ccc(-c2nnco2)cc1)C1CC(=O)N(c2ccc3c(c2)OCCO3)C1 (stereo not given) | 1 | .
Cc1ccc(CNC(=O)C(Cc2ccccc2)n2cccc2)cc1 (stereo not given) | 8 | .
Oc1ccc(Br)cc1/C=N/n1cnnc1 | 7 | 1.0
COc1ccc(C(=O)NCCN=C2NS(=O)(=O)c3ccccc32)cc1 | 3 | -1.5
O=C(Nc1ccccc1)c1ccc(S(=O)(=O)N2CCOCC2)cc1 | -12 | .
Cc1cccc(C(=O)NC2CCCCC2C)c1 (stereo not given) | 13 | 0.8
Cc1ccc(NC(=O)CN2C(=O)/C(=C\c3ccccc3)SC2=S)cc1 | 5 | 2.3
CCC(=O)c1ccc(OC(=O)c2c(C)noc2C)cc1 | -3 | .
CN(C(=O)CSc1cccc[n+]1[O-])C1CCCCC1 | -9 | -1.5
Cc1ccc(S(=O)(=O)CCC#N)cc1 | 7 | 0.2
Cc1cccn(Cc2c(Cl)cccc2Cl)c1=O | -2 | .
CCN(CC)c1ccc2cc(C(N)=O)c(=N)oc2c1 | -184 | .
N#C/C(=C/c1cccc(Oc2ncccn2)c1)c1ccccc1F | . | 0.6
O=C(On1c(-c2ccccc2)cc2ccccc21)c1ccco1 | 5 | 0.1
c1ccc2[nH]c(CCc3nc4ccccc4s3)nc2c1 | -14 | .
Cc1ccc(-n2ncc3c(NCc4ccc5c(c4)OCO5)ncnc32)cc1 | 7 | .
COc1ccc(S(=O)(=O)N(Cc2cc3cc4c(cc3n3nnnc23)OCO4)C2CCCCC2)cc1 | 8 | -0.4
CSC(=NS(=O)(=O)c1cc(OCC(F)(F)F)ccc1OCC(F)(F)F)SC | . | 1.7
CON(C)S(=O)(=O)c1cccc(C(=O)Oc2ccc(-c3nnco3)cc2)c1 | 0 | .
O=C(Cc1cccs1)N(c1ccccc1)C1C=CS(=O)(=O)C1 (stereo not given) | 10 | 5.3
O=C(O)Cn1nc(-c2ccccc2)ccc1=O | 6 | .
O=C(Cn1nnc(-c2cc(C(F)(F)F)cc(C(F)(F)F)c2)n1)c1ccc(Cl)cc1 | . | -0.3
CC(C)N(Cc1ccccc1)C(=O)COc1ncnc2c1cnn2-c1ccccc1 | -1 | .
N#Cc1ccc(C2SCCCS2)cc1 | . | -1.2
CCOc1cccc2cc(C(N)=O)c(=Nc3ccccc3F)oc12 | 6 | .
COc1ccccc1C(=O)NCCn1cc(SC(=N)N)c2ccccc21 | -22 | .
CCOc1ccc(C2c3c(oc4ccc(F)cc4c3=O)C(=O)N2CC2CCCO2)cc1OC (stereo not given) | -7 | .
CC(=O)Oc1ccccc1C(=O)Oc1ccc(/C=N\n2cnnc2)cc1 | -6 | .
O=c1oc2c(CN3CCOCC3)c(O)ccc2cc1-c1ccccn1 | 3 | .
COc1ccc(/C=C/C(=O)OCC(=O)Nc2ccccc2Cl)cc1 | -13 | 0.3
CC(C)c1cc(C(C)C)c(S(=O)NCCCN2CCOCC2)c(C(C)C)c1 (stereo not given) | -20 | .
O=C1/C(=C\c2ccsc2)CC/C1=C/c1ccsc1 | 11 | 6.6
COc1cc(C2C3=C(CCCC3=O)Nc3[nH]c(=O)[nH]c(=O)c32)cc(OC)c1OC (stereo not given) | 12 | 4.0
O=C(CN1CSCC1=O)Nc1ccc(I)cc1 | 18 | .
N#CCOC(=O)/C=C/c1ccc2c(c1)OCO2 | -16 | .
CCOC(=O)C1=C(c2ccccc2)NC(=S)NC1CC (stereo not given) | 17 | 0.3
c1ccc(CNCc2ccccn2)cc1 | 5 | 5.4
c1cc(OCc2nc3ccccc3s2)cc(-n2cnnn2)c1 | -7 | .
CC(=O)NS(=O)(=O)c1ccc(-c2ccc(/C=C3/C(=O)NN(c4cccc(Cl)c4)C3=O)o2)cc1 | 21 | 9.1
CC(CCc1ccccc1)NC(=O)c1cccs1 (stereo not given) | 20 | .
COC(=O)C1=CN(C)C=C(C(=O)OC)C1c1cccs1 | 7 | .
O=C(NCc1ccco1)NNc1nc2c(-c3ccccc3)nnn2c2ccccc12 | -24 | .
S=C(NCCCN1CCOCC1)N1CCN(c2ccccc2)CC1 | 15 | -0.6
O=C(Cn1nc(-c2ccccc2)c2c(c1=O)CCCC2)Nc1ccccc1 | 15 | .

# (next part)
compound | S aureus helic | MgrA-DNA mod
COc1ccc(C(=O)CSc2nsc(SCC(=O)c3ccc(OC)cc3)c2C#N)cc1 | 13 | -0.5
CCOC(=O)c1c(CN2CCOCC2)n(C)c2cc(Br)c(OC(C)=O)cc12 | -3 | .
COc1ccc(NC(=O)CSc2nccn2-c2ccccc2)cc1 | 2 | -0.1
O=C(COc1ccc2oc3c(c2c1)CCCC3)OCc1ccccn1 | -7 | .
CC(C)NC(=O)c1cc(-c2ccc(Cl)cc2)on1 | 5 | 0.5
CC(C)CCNC(=O)c1cn(CC(C)C)c(=O)c2c1c1ccccc1n2C | 9 | 4.2
